Screening data deposited in PubChem BioAssay by ICCB-Longwood Screening Facility, Harvard Medical School.
Ab BasE inh: BasE siderophore biosynthesis inhibition | purified BasE, fluorescence polarization binding displacement | inhibition, % (test concentration not listed) | 0.1% of 84,000 active;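 active means both replicates above 25% with normal brightness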;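 further: 0% = negative plate control signal and 100% = positive plate control signal; stock transfer was 100 nL into about 30 µL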
LANA-nucl inh: inhibitors of KSHV LANA binding to nucleosomes | FITC-LANA1-23 / chicken nucleosome fluorescence polarization; hits give low values | z-score (test concentration not listed) | 0.3% of 51,000 active | AID 720717;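 active means both repeat wells score below -2 in polarization z-score versus plate sample wells, excluding overly bright wells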;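 further: 100 nL library stock added to about 30 µL; numbers are from one replicate; some results filed as inactive read as strong as hits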
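Assay system: purified chicken nucleosomes with FITC-labelled LANA N-terminal peptide (1-23) / Probe or stimulus: 50 nM FITC-LANA1-23 probe / Compound dosing: pin-transferred compound, 100 nL / Times: compound with peptide–nucleosome mix 10–45 min at room temperature / Technique: fluorescence polarization, 480 nm excitation, 535 nm parallel and perpendicular emission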
* = called active by the depositor; . = not tested or not shown; & = joins results of further samples. The list is partial; rates above refer to the full screens.

canonical_smiles	Ab BasE inh	LANA-nucl inh
CCN(CC)CCNC(=O)c1cc(Br)c(N)cc1OC	-1.3&-1.4	0.77&-0.17
COc1ccc(NC(=O)c2ccccc2C(F)(F)F)cc1OC1CCCC1	1.3	.
CCn1cc(C(=O)N2CCCCC2C)c(=O)c2ccc(C)nc21 (stereo not given)	-0.6	.
CCCCC(=O)c1c(O)c2ccccc2oc1=O	0.5	-0.3
O=C(Nc1ccc(S(=O)(=O)Nc2ncccn2)cc1)C1CC(=O)N(c2ccccc2)C1 (stereo not given)	-1.0	1
COc1ccccc1C1OC(=O)C[C@@H]1C(=O)Nc1nncs1 (stereo not given in full)	4.0	-0.24
Cc1cccn2c(=O)c3cc(C(=O)N4CC(C)OC(C)C4)n(C)c3nc12 (stereo not given)	3.2	-1.6
CCNC(=O)Nc1n[nH]c(-c2ccccc2)n1	0.8	.
CCNc1nc(NCC)n2c(SCC(=O)NC34CC5CC(CC(C5)C3)C4)nnc2n1	1.0	.
CCCN(CC1CC1)C(=S)Nc1ccccc1OC	-3.3	0.74
Cc1ccccc1C(=O)NC1CCN(Cc2nnnn2C2CCCC2)CC1	0.3	-0.97
O=C(c1ccccc1)N(Cc1nc2ccccc2c(=O)[nH]1)C1CCCC1	2.0	-0.068
CC(C)(C)NC(=O)CSc1nc2ccccc2[nH]1	1.4	.
CC1CCCN(C(=O)Cc2noc3ccccc23)C1 (stereo not given)	1.9	-0.5
Cn1c(-c2ccccc2O)n[nH]c1=S	-2.5	1.9
CN=C(Nc1ccc(C(=O)OC)s1)c1ccccc1	0.3	.
Cc1cc(C(=O)Nc2cccc(C(F)(F)F)c2)no1	0.5	-1.2
Cc1cc(CNC(=O)NCc2ccco2)c(C)n1-c1ccc(F)cc1	-2.5	.
CC(C)(C)c1ccc(-c2noc(C(=O)NN)n2)cc1	-3.8	0.17
O=C1CC2CCC(CN1)N2CC(=O)Nc1ccc(F)cc1 (stereo not given)	1.2	-0.22
C1=C(C23CC4CC(CC(C4)C2)C3)SC2=NCCN12	-0.7	.
OC(C#Cc1ccccc1)c1cccs1 (stereo not given)	-9.1	1.9
Oc1ccccc1C1OCC2(CO1)COC(c1ccccc1O)OC2 (stereo not given)	-0.1	0.79
CCCS(=O)(=O)N1CCC(C(=O)NCCc2ccccc2)CC1	0.9	0.26
c1ccc(OCCn2c3ccccc3c3nc4ccccc4nc32)cc1	1.2	.
Cc1nn(Cc2ccccc2Cl)c(C)c1C(=O)NCc1cccs1	3.4	.
COc1cc(OC)cc(OC(=O)C2=COCCO2)c1	-0.2	.
Cc1csc(C(C#N)C(=O)CSc2cc(C)c3ccccc3n2)n1 (stereo not given)	2.4	.
Cc1cc(C)c(C#N)c(SCCS(=O)(=O)Cc2ccc(Cl)cc2)n1	0.1	.
CCCCN(c1ccccc1)S(=O)(=O)c1ccc(F)cc1F	-1.3	.
CCN(Cc1ccccc1)C(=O)Cc1c[nH]c2ccccc12	1.6	.
O=[n+]1cc(-c2ccc(Br)cc2)n([O-])c2c1CCC2	2.8	0.94
N#Cc1c(NC(=O)C(F)(F)F)oc(-c2ccccc2)c1-c1ccccc1	4.1	-0.59
O=C(Nc1ccccc1)N1CCCN(c2nc3ccc(Cl)cc3s2)CC1	.	-0.24
C=CCn1c(C(F)(F)F)nc2ccccc21	1.2	.
CNC(=O)c1c(NC(=O)Cc2coc3cc(C)ccc23)sc2c1CCCC2	2.5	0.23
Cc1c(/C=C2\SC(c3ccccc3)=NC2=O)c(=O)n(-c2ccccc2)n1C	1.2	.
CCC(C)NC(=O)CSC1=N/C(=C/c2ccc(OC)cc2)C(=O)N1Cc1ccco1 (stereo not given)	0.9	.
Clc1ccc(/C=N/NCc2cn3ccsc3n2)cc1	0.1	.
Cc1cc(-n2nc3ccc(Cl)cc3n2)c(O)c(C(C)(C)C)c1	-0.9	.
N#CC1=Cc2ccccc2C2NN3C(C#N)=Cc4ccccc4C3NN12 (stereo not given)	-0.4	-0.089
O=C(OCC(=O)c1ccccc1)/C(=C/c1cccs1)c1cccs1	-1.0	.
CCN(CC)c1ccc2c(C)c(CO)c(=O)oc2c1	-2.8	0.82
CCNC(=O)/C=C/c1cccc(OC)c1OC	0.0	.
O=C(NCc1ccccn1)c1cccnc1SCCS(=O)(=O)c1ccc(C(F)(F)F)cn1	1.9	.
CC1=CC(=O)N(c2ccn(C)n2)C1=O	4.5	.
Cc1ccc(C)c(N(CC(=O)Nc2ccccc2)S(C)(=O)=O)c1	0.9	-0.95
NC(=O)c1ccc(S(N)(=O)=O)o1	2.5	-0.73

Going on with the list.
| structure | Ab BasE inh | LANA-nucl inh |
| --- | --- | --- |
| Cc1ccn2c(=O)c(C(=O)O)cnc2c1 | 0.9 | . |
| C#CCOc1c(Br)cc(/C=N/O)cc1OCC | 0.4 | -0.87 |
| CCC(C)[C@H](NS(=O)(=O)c1cccc2ccccc12)C(=O)N[C@H](C=O)Cc1c[nH]c2ccccc12 (stereo not given in full) | 2.0 | 0.16 |
| O=C(Nc1ccn(C2CC(OC(=O)c3ccccc3)C(CO)O2)c(=O)n1)c1ccccc1 (stereo not given) | -1.6 | -1.6 |
| COc1ccc2cc(C3CC(c4ccc(OC)c(OC)c4)=NN3C(=O)c3ccco3)c(Cl)nc2c1 (stereo not given) | -3.2 | . |
| COc1ccc2oc(C(=O)OCc3ccc(OC)c(F)c3)c(C)c2c1 | -0.9 | . |
| Cc1c(NC(=O)C(C)OC(=O)c2cccc(S(=O)(=O)N3CCCC3)c2)c(=O)n(-c2ccccc2)n1C (stereo not given) | 1.2 | . |
| O=C(O)CSCC(=O)N1CCN(C2c3ccccc3-c3ccccc32)CC1 | . | -0.5 |
| Clc1ccc(Nc2nnc3c4ccccc4c4ccccc4c3n2)cc1 | 0.5 | . |
| Cn1ncc2c(NNS(=O)(=O)c3ccccc3)ncnc21 | 0.3 | 0.12 |
| Fc1ccccc1-c1nc(-c2cccc(C(F)(F)F)c2)no1 | 0.3 | -1.1 |
| CN1CCN(c2cc(C(F)(F)F)nc3ccc(F)cc23)CC1 | . | 0.83 |
| Cn1ccnc1SCCN | 1.5 | -1.5 |
| CC(Oc1ccc(Cl)cc1Cl)C(=O)Nc1ccc2oc(-c3ccncc3)nc2c1 (stereo not given) | 1.1 | -0.84 |
| CC1CCC(NC(=O)c2cncc(Br)c2)CC1 (stereo not given) | 2.3 | -0.63 |
| Cn1nc(N2CCN(CC(=O)Nc3ccc(OC(F)(F)F)cc3)CC2)c(=O)n(C)c1=O | 1.0 | . |
| Cc1ccc(Nc2nc(N)nc(CSc3nc4c(n3-c3ccccc3)CCCC4)n2)cc1 | -1.4 | . |
| Cc1cc(C)nc(SCc2nnc(SC/C=C/c3ccccc3)o2)n1 | -9.0 | . |
| CC1CC(=O)N(c2cccc(C(=O)O)c2)C1=O (stereo not given) | 2.9 | 0.86 |
| CCCCN1C(=O)c2ccc(C(=O)N3CCc4ccccc43)cc2C1=O | 1.1 | . |
| COc1cc(CNCc2ccco2)ccc1OCC(N)=O | 0.3 | -0.71 |
| O=C(NCCCN1CCOCC1)NCc1cccc2ccccc12 | 0.1 | . |
| CC[C@@H](C(=O)C(C)[C@@H](O)[C@H](C)CCc1ccc(C)c(O)c1C(=O)O)C1OC(CC)(C2CC[C@](O)(CC)[C@H](C)O2)C[C@@H]1C (stereo not given in full) | -0.9 | 0.58 |
| CCN(CC(=O)NCc1ccc(F)cc1)C(=O)Cn1c(C)nc2ccccc21 | 0.5 | . |
| CN(C)C(=S)SCC(=O)N1c2ccccc2NC(=O)C1(C)C | 2.1 | . |
| COC(=O)c1ccc(CNC(=O)C(C)Sc2ccccc2)cc1 (stereo not given) | 1.8 | . |
| CC(=O)Oc1ccccc1C(=O)NCCC1=CCCCC1 | 0.7 | -0.74 |
| CC(C)(C)c1ncc(S(=O)(=O)c2ccc(C(F)(F)F)cn2)c(N)n1 | -4.0 | . |
| COc1ccc(N2CCN(CC(O)COc3ccccc3)CC2)cc1 (stereo not given) | -0.3 | . |
| COCCn1ccc2c(OCC(=O)NCc3ccco3)cccc2c1=O | -2.8 | 1.6 |
| Cc1nc(CSc2nc(N)c(C#N)cc2C#N)cs1 | -1.4 | . |
| CC(CCc1ccccc1)NC(=O)C(C)N1CCN(C(=O)c2ccccc2)CC1 (stereo not given) | -4.4 | . |
| COC(=O)N/N=C/c1ccccc1Br | 0.6 | . |
| O=C(C1CCCN1C(=O)c1cccs1)N1CCN(S(=O)(=O)Cc2ccccc2)CC1 (stereo not given) | -0.1 | . |
| CC1=CC(=O)/C(=C2/Sc3ccccc3N2C)C(=O)O1 | -3.7 | . |
| NCCCCCC(=O)O | -2.3&2.6 | 0.3&0.25&-0.3 |
| Cc1c(NC(=O)NCc2ccccc2)n(C)c(=O)n1-c1ccccc1 | 2.1 | -0.69 |
| CN(C(=O)C1CCCCC1C(=O)O)c1ccccc1 (stereo not given) | -1.1 | -0.02 |
| NC(=S)N1N=CCC1(O)C(F)(F)F (stereo not given) | 1.8 | . |
| Cc1ccccc1NC(=O)N(Cc1ccco1)C(=O)CC#N | -8.8 | 1.8 |
| O=C(O)CSc1nnc(C2CCCCC2)n1/N=C/c1cccc(F)c1 | 0.7 | . |
| C=CCNC(=O)c1ccc2snnc2c1 | -2.3 | 0.17 |
| COc1ccc(C(=O)N(CC(=O)NC2CCCC2)Cc2ccc3c(c2)OCO3)cc1OC | 0.7 | -0.044 |
| O=S(=O)(/N=C1\SCCN1S(=O)(=O)c1ccc(Cl)cc1)c1ccc(Cl)cc1 | 2.9 | . |
| CC(C)(C)c1nnc2n1N=C(c1ccc(Br)s1)CS2 | 0.4 | . |
| NCC(c1ccc(F)cc1)N1CCCCCC1 (stereo not given) | -4.5 | -1.1 |
| CCOc1ccc(NC(=O)CN2N=C(c3ccc(C)cc3)CCC2=O)cc1 | -1.4 | 0.31 |
| CC1(C)OC(=O)C(=Cc2ccc3c(c2)OCO3)C(=O)O1 | -0.9 | -0.43 |
| N/C(=N\S(=O)(=O)c1ccc(Cl)cc1)N1CCSCC1 | 1.7 | . |
| Cc1cccc(NC(=O)CN(C)C(=O)C2CCCC2)c1C | 1.5 | . |
| c1ccc(-c2noc(-c3cccs3)n2)cc1 | -1.2 | -0.29 |
| OC(CN1CCc2ccccc21)C(F)(F)F (stereo not given) | . | 0.48 |
| N#C/C(C(=O)c1ccccc1)=c1/s/c(=C\c2cccs2)c(=O)n1Cc1ccco1 | -0.7 | . |
| CCN1CCN(S(=O)(=O)c2ccccc2)CC1 | 5.4 | -0.073 |
| Cc1nc(SCC(=O)NC(C)(C#N)C2CC2)c2c(C)c(C)sc2n1 (stereo not given) | -0.1 | . |
| Cc1ccc(S(=O)(=O)NNS(C)(=O)=O)cc1 | 2.2 | . |
| CC(C)(C)c1ccc(-c2noc(CSc3n[nH]c(=O)n3Cc3ccco3)n2)cc1 | 2.0 | 0.27 |
| CCSc1nnc(NC(=O)C2=NN(c3cc(C)ccc3C)C(=O)CC2)s1 | 2.4 | . |
| CCOC(=O)Cc1csc(NC(=O)CSc2nc(=O)cc(N)n2-c2cccc(C)c2)n1 | -39 | -2.1 |
| CCc1ccc(NC(=O)CN2C(=O)CCc3cc(S(=O)(=O)N4CCCCC4)ccc32)cc1 | -0.8 | 1.1 |

Next entries
| structure | Ab BasE inh | LANA-nucl inh |
| --- | --- | --- |
| COC(=O)COc1ccccc1OC | 0.7 | 0.58 |
| CC(C)N=C1NN=C(c2cccs2)CS1 | 2.6 | . |
| Cc1ccc(CSc2nnc(CCC(=O)O)c(=O)n2N)cc1 | -0.3 | 0.99 |
| COc1ccc2[nH]c(=O)c(CN(Cc3ccc4c(c3)OCO4)C(C)=O)cc2c1 | 2.1 | 0.74 |
| CNC(=O)Nc1ccc2nc(C)oc2c1 | 3.0 | -0.069 |
| CCCN(CCC)c1nn2c(=O)c(C(=O)NCC)cnc2s1 | -1.8 | -0.0035 |
| Brc1cc2c(cc1Cn1nnc(-c3cccs3)n1)OCO2 | 0.5 | . |
| CC1(C)CC(=O)C=C(Nc2ccccc2)C1 | 1.7 | . |
| Cc1nn(-c2ccccc2)c2sc(C(=O)OCCCc3nc(-c4ccccc4)no3)cc12 | -0.7 | . |
| CCC(CC)C(=O)c1c[nH]c(C(=O)O)c1 | . | 0.46 |
| C1=CC2C(C1)CC2NCCc1nnc2ccccn12 (stereo not given) | 0.1 | . |
